High-throughput results: PubChem BioAssay, National Center for Advancing Translational Sciences (NCATS)
HPGD block – blocks human HPGD enzyme activity | purified HPGD, NADH fluorescence kinetic, PGE2 substrate | Potency, µM, inactives show at the highest dose activity change, negative = inhibition, most hits filed as inhibitors | actives 4.3% (n = 150,000); active = well fitted inhibition curve with a large enough effect (not every such curve was filed as active); inconclusive = small, poorly fitted or top-dose-only effect, or another doubt; inactive = no such curve, though single readings can be large or run the other way;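 further: top concentration of the series not given in the record; plate controls included wells without enzyme; inactives centre near -10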
Target sequence (P15428 whole entry, looked up): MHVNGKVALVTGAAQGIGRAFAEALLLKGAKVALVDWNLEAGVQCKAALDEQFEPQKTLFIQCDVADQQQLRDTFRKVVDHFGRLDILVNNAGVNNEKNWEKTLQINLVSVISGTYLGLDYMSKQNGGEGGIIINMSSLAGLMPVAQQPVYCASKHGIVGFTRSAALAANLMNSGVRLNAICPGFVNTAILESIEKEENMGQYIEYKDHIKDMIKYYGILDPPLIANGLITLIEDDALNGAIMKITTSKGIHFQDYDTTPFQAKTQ
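NADH formation kinetics: reaction with 30 uM PGE2 and 1 mM NAD+ (final), 20 nM enzyme, Tris-HCl pH 8 with Tween 20, after 15 min compound preincubation at room temperature. Fluorescence change, last versus first of five reads.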
The depositor's hits bear a star; ? = inconclusive; ! = not confirmed by another sample. On the % scale 0 is the no-effect control and ±100 the full control effect; potency means the concentration at half of the fitted maximal effect.

entry	Molecule	HPGD block
1	COC(=O)c1nn(-c2cccc(C)c2)c2nnc(Cc3ccccc3)c(=O)n12	-9%
2	CC(C)OC(=O)c1c(-c2ccc(C(C)C)cc2)csc1NC(=O)C1CCCO1 (stereo not drawn)	-12%
3	Cc1ccc2[nH]c3c(N4CCN(Cc5ccccc5)CC4)ncnc3c2c1	?
4	CN(C)c1ccc(NC(=O)c2ccc(COc3cccc(Cl)c3)o2)cc1	-23%
5	N#Cc1ccc(N2CCN(c3ccc(F)cc3)CC2)cc1	-27%
6	O=S(=O)(c1ccc2c(c1)OCCO2)N1CCC(c2nc3ccccc3s2)CC1	-2%
7	Cn1cnnc1SCC(=O)c1ccc(OC(F)F)cc1	-10%
8	O=c1[nH]c2ccc(S(=O)(=O)N3CCCCC3)cc2[nH]1	-10%
9	Cc1nn(-c2ccccn2)c2c1C(c1ccncc1)C1=C(CC(C)(C)CC1=O)N2 (stereo not drawn)	?
10	O=C1NC(c2ccccc2)=C(c2nc3ccccc3s2)C(c2ccc(O)cc2)N1 (stereo not drawn)	-30%
11	CNC(=S)N(CCc1c(C)[nH]c2ccc(OC)cc12)Cc1cc(OC)c(OC)c(OC)c1	-10%
12	C=CCC(O)(/C=C/c1ccccc1)c1ccccc1 (stereo not drawn)	-12%
13	CCCCCCCCCc1ccc(OCCOCCOCCOCCOCCOCCOCCOCCOCCO)cc1	-8%
14	O=C(NC1CCCC1)C(c1ccc(N2CCOCC2)cc1)N(Cc1ccco1)C(=O)c1ccco1 (stereo not drawn)	-1%
15	C(=C\c1ccccc1)/CN1CCN(c2ncnc3c2oc2ccccc23)CC1	?
16	c1ccc(CNc2ccnc(-c3ccoc3)n2)cc1	-18%
17	CCNC(=O)[C@@H]1CCCN1C(=O)[C@H](CCCN=C(N)N)NC(=O)[C@H](CC(C)C)NC(=O)[C@@H](CC(C)C)NC(=O)[C@H](Cc1ccc(O)cc1)NC(=O)[C@H](CO)NC(=O)[C@H](Cc1c[nH]c2ccccc12)NC(=O)[C@H](Cc1cnc[nH]1)NC(=O)[C@@H]1CCC(=O)N1	-9%
18	O=C(c1cnc2n(c1=O)CCS2)N(c1ccccc1)C1CCCCC1	-10%
19	CCC/C(O)=C1\C(=O)CCCC1=NC(C)C(=O)O (stereo not drawn)	-4%
20	NC(=O)CC(c1ccccc1)c1ccco1 (stereo not drawn)	-8%
21	CC(=O)N1CCC2(CCN(Cc3nccs3)CC2)CC1	-5%
22	O/C(=C\Sc1nnc(Cc2ccccc2)o1)c1ccc(Br)cc1	-10%
23	Cc1[nH]c(C)c(CN(C)C)c1CN(C)C	-6%
24	NS(=O)(=O)c1ccc(-n2nncc2C23CC4CC(CC(C4)C2)C3)cc1	-2%
25	O=C(CN1CCN(C(=O)N2CCCCC2)CC1)Nc1ccc(F)cc1	0%
26	CCCCN(C(=O)c1ccc(Cl)cc1)C1CC2CCC(C1)N2C (stereo not drawn)	-3%
27	Cc1ccc(CN2C(=O)CCC2C(=O)NCCCN2CCCCC2C)cc1 (stereo not drawn)	-2%
28	CC(C)(C)n1nc2c(c1NC(=O)c1ccc(S(=O)(=O)N3CCCC3)cc1)CS(=O)C2 (stereo not drawn)	-3%
29	O=C(CSCC(=O)OCC(=O)c1ccc(Br)cc1)Nc1ccc(Br)cc1	-12%
30	NC(=O)CSc1nnc(-c2ccc(S(=O)(=O)N3CCOCC3)cc2)n1Cc1ccccc1	?

Continued; the last 4 above are carried over.
entry	Molecule	HPGD block
27	Cc1ccc(CN2C(=O)CCC2C(=O)NCCCN2CCCCC2C)cc1 (stereo not drawn)	-2%
28	CC(C)(C)n1nc2c(c1NC(=O)c1ccc(S(=O)(=O)N3CCCC3)cc1)CS(=O)C2 (stereo not drawn)	-3%
29	O=C(CSCC(=O)OCC(=O)c1ccc(Br)cc1)Nc1ccc(Br)cc1	-12%
30	NC(=O)CSc1nnc(-c2ccc(S(=O)(=O)N3CCOCC3)cc2)n1Cc1ccccc1	?
31	CCc1nc(SCC(=O)Nc2nnc(CC)s2)c2c(C)c(C)sc2n1	-7%
32	COc1ccccc1C(=O)Nc1nc(-c2cccs2)c(NC(C)=O)s1	?
33	Cn1cnnc1SCC(=O)NN(c1ccccc1)c1ccccc1	-2%
34	CCN(CC)CCCn1c(=S)[nH]c2cc(Cl)ccc2c1=O	4%
35	O=C(CCCN1C(=O)c2ccccc2C1=O)NCCN1C(=O)S/C(=C\c2cccs2)C1=O	-18%
36	Cc1cccc(N2CCN(C3=NC(=O)/C(=C\c4cn[nH]c4-c4ccccc4)S3)CC2)c1	-13%
37	CCN1CCN(CC(=O)Nc2nc3ccc(OC)cc3s2)CC1	-8%
38	Cc1ccc2cc(CN(Cc3cccs3)Cc3nnnn3CC3CCCO3)c(=O)[nH]c2c1C (stereo not drawn)	?
39	COc1cccc(C(=O)COc2ccccc2N2C(=O)C3C4C=CC(C4)C3C2=O)c1 (stereo not drawn)	-3%
40	COc1ccc(Nc2nccc(OC)c2C#N)cc1	-13%
41	c1ccc(-c2nnc3n2N=C(c2ccc4c(c2)OCO4)CS3)nc1	-16%
42	O=C(Nc1ccc(S(=O)(=O)Nc2nccc(C3Cc4ccccc4C(=O)O3)n2)cc1)c1ccccc1 (stereo not drawn)	-5%
43	COC(=O)CC1C(C(=O)OC)ON2OC(C(=O)OC)C(C(=O)OC)C12 (stereo not drawn)	-7%
44	COCCn1c(SCC(=O)Nc2cc(C)nn2-c2ccccc2)nnc1-c1ccncc1	-1%
45	O=c1[nH]c(NCCO)nc2c1C1(CCCCC1)Cc1ccccc1-2	?
46	COc1ccc(NC(=O)C2CCCCN2CC(=O)OCc2ccccc2)cc1OC (stereo not drawn)	-9%
47	COc1ccc(-c2noc(CCCC(=O)O)n2)cc1	-9%
48	CC(=O)Nc1sc2c(c1CN1CCN(C)CC1)CCCC2	-8%
49	COc1ccc2c(CC(=O)NCC3CCC(C(=O)O)CC3)cc(=O)oc2c1 (stereo not drawn)	?
50	COC(=O)c1cc(Cl)c(NC(=O)/C=C/c2ccc(Cl)cc2)cc1OC	?
51	N=C1/C(=C/c2cccn2-c2ccc([N+](=O)[O-])cc2)C(=O)N=C2SC=CN12	?
52	O=C(/C=C/c1cccs1)Nc1ccc(N2CCOCC2)c(S(=O)(=O)Nc2ccccc2Cl)c1	-11%
53	CCCOc1cccc(CN2CCCCC2c2cccnc2)c1 (stereo not drawn)	2%
54	CCOC(=O)/C=C/CCC/C=C/C(=O)c1ccccc1	-14%
55	O=C(NCc1ccccc1)c1cnsn1	?
56	c1ccc(Nc2nc(N3CCNCC3)nc(N3CCOCC3)n2)cc1	-3%
57	O=c1[nH]c2cc([N+](=O)[O-])c([N+](=O)[O-])cc2[nH]c1=O	32µM*!
58	O=C(COC(=O)C1CCN(/C=C/C(=O)C(F)(F)F)CC1)Nc1ccccc1	-11%
59	CCNc1ncc2ncc(=O)n(C)c2n1	?
60	Oc1ccc2ccccc2c1C=Nc1ccc(N2CCOCC2)cc1	20µM*

In a second layout: 2 of the compounds above
(48) CC(=O)Nc1sc2c(c1CN1CCN(C)CC1)CCCC2
  HPGD block: -8%

(27) Cc1ccc(CN2C(=O)CCC2C(=O)NCCCN2CCCCC2C)cc1 (stereo not drawn)
  HPGD block: -2%

Remaining list, next part.
entry	Molecule	HPGD block
61	CC(/C=N/Nc1nnc(C)c(=O)[nH]1)=C\c1ccccc1	-24%
62	COc1ccc(-c2oc3cc(O[C@@H]4OC(CO)C(O)C(O)C4O)c(OC)c(O)c3c(=O)c2OC)cc1O (stereo partly drawn)	?
63	COc1cc2c(cc1OC)CN(c1ccc([N+](=O)[O-])cc1C#N)CC2	-5%
64	CCc1oc2ccccc2c1C(=O)CCN1CCCCC1	28µM*
65	COc1ccc(/C=N/NC(=O)CSc2nnc(C)n2-c2ccccc2)c(OC)c1OC	6%
66	Cc1cc2cc(CNC(=O)NC3CCCCC3)ccc2[nH]1	?
67	Cc1cc(C)n(C(=O)C(C)N2C(=O)c3ccccc3C2=O)n1 (stereo not drawn)	-1%
68	COc1ccccc1CNC(=O)c1ccc(S(=O)(=O)N(C)C)cc1	-5%
69	CCOc1ccc(C2=Nn3c(nnc3-c3ccc(OC)cc3)SC2)cc1	-15%
70	COc1ccc(CCN=C2SCC(=O)N2C)cc1OC	0%
71	CCOC(=O)c1cccc(NC(=O)CN2C(=O)C3C4C=CC(C4)C3C2=O)c1 (stereo not drawn)	-9%
72	COc1cccc(Cn2c(OCC3CCCO3)nc3c2c(=O)n(C)c(=O)n3C)c1 (stereo not drawn)	-11%
73	CCSc1nnc2c(Cl)cc(Cl)cn12	-10%
74	Cc1ccccc1N1C(=O)CC1(C#N)c1ccc(OCc2ccccc2)cc1 (stereo not drawn)	-20%
75	O=C(CCCc1ccccc1)NCCN1CCOCC1	-10%
76	CC(=O)[C@@]1(N=Nc2ccc(S(N)(=O)=O)cc2)CCOC1=O	-9%
77	Cn1nc(CC(=O)NCc2ccc(F)cc2)c2ccccc2c1=O	-3%
78	COc1ccc(Cl)cc1NC(=O)CCc1ccccc1	-21%
79	C=CCn1c(SCC(=O)c2cccs2)nc2sc(CC)cc2c1=O	-16%
80	Cc1cc(C)nc(NS(=O)(=O)c2ccc(NC(=O)c3ccc4c(c3)OCO4)cc2)n1	?
81	O=C(c1ccncc1)N1CCC2(CC1)CN(c1ccncc1)C2	-5%
82	Cc1ccc(S(=O)(=O)n2cnc3cc([N+](=O)[O-])ccc32)c(C)c1	-5%
83	CCC(Sc1nnc(-c2ccc(C)c(Cl)c2)n1CC)C(=O)Nc1nccs1 (stereo not drawn)	-11%
84	CCOC(=O)Cn1cc(C=O)c2ccccc21	5%
85	O=C(c1ccccc1)c1ccc(N2CCNCC2)cc1	-6%
86	CC1(C)CC(=O)C(C(c2cccc([N+](=O)[O-])c2)C2C(=O)CC(C)(C)CC2=O)C(=O)C1	1%
87	CCOC(=O)NC(CC(=O)O)c1ccc(OCC)cc1 (stereo not drawn)	0%
88	COc1c2c(cc3occ(-c4ccc5c(c4)OCO5)c(=O)c13)OC(C)(C)C=C2	?
89	CC1(C)CC(=O)c2sc(NS(C)(=O)=O)nc2C1	-20%
90	C=CCSC1=C(C#N)C(c2ccccc2OC)CC(=O)N1 (stereo not drawn)	-16%

Next section; it opens with the 3 that closed the last part.
entry	Molecule	HPGD block
88	COc1c2c(cc3occ(-c4ccc5c(c4)OCO5)c(=O)c13)OC(C)(C)C=C2	?
89	CC1(C)CC(=O)c2sc(NS(C)(=O)=O)nc2C1	-20%
90	C=CCSC1=C(C#N)C(c2ccccc2OC)CC(=O)N1 (stereo not drawn)	-16%
91	CCOC(=O)C1CCCN(C(=O)c2sc3nc(-c4ccccc4)cn3c2C)C1 (stereo not drawn)	-11%
92	O=C(O)c1nn(-c2ccccc2)nc1-c1nn(-c2ccccc2)nc1C(=O)O	?
93	COc1ccc(/C=N/n2c(N)c(S(=O)(=O)c3cccs3)c3nc4ccccc4nc32)cc1OC	?
94	CSc1ccccc1NC(=O)CN(Cc1ccccc1)S(C)(=O)=O	-6%
95	Cc1ccc(CNC(=O)COC(=O)CCCOc2ccc(Cl)cc2Cl)cc1	16µM*
96	COCCCNc1oc(-c2ccccc2F)nc1C#N	?
97	CC(=O)N1CCc2cc(C(=O)CN3CCN(C(=O)c4ccco4)CC3)ccc21	-6%
98	Cc1cccc(N2CN(Cc3cccnc3)CNC2=S)c1	-5%
99	c1ccc(CSc2nncn2-c2ccccn2)cc1	-8%
100	COc1ccc2[nH]c(=O)c(CN(C(C)=O)C3CCCCC3)cc2c1	?
101	CCCCC1=CC2=C(c3ccco3)C(=O)C(C)(OC(=O)c3ccc(OC)cc3)C(=O)C2=CN1c1ccc(OC)cc1 (stereo not drawn)	-7%
102	Cc1nn(C(C)C(=O)N2CCOCC2)c(C)c1[N+](=O)[O-] (stereo not drawn)	-9%
103	O=C(Nc1nc(-c2ccc3c(c2)Cc2ccccc2-3)cs1)c1ccccc1	-18%
104	COc1ccccc1-c1nc(NCc2ccccc2)c2ccccc2n1	-17%
105	COC(=O)CCC(=O)Nc1ccc(NC(C)=O)cc1	-6%
106	O=C(NCc1ccco1)C1CCC(CNS(=O)(=O)c2cccc3cccnc23)CC1 (stereo not drawn)	20µM*
107	COc1ccc(CCNC(=O)c2noc3c2CCCC3)cc1OC	3%
108	N#C/C(C(=O)N1CCOCC1)=C1\Nc2ccccc2S1	-23%
109	O=C(/C=C/c1cccc([N+](=O)[O-])c1)NCc1cccnc1	-4%
110	Cc1cc(C(=O)O)ccc1N/C=C1\CCCC(C)C1=O (stereo not drawn)	-12%
111	O=C(C1CCCN(S(=O)(=O)c2cccs2)C1)N1CCN(C2CCCCC2)CC1 (stereo not drawn)	-7%
112	O=[N+]([O-])c1ccc(N2CCN(S(=O)(=O)c3ccc(Cl)cc3)CC2)cc1NCC1CCCO1 (stereo not drawn)	-14%
113	COc1cc(-c2nnc(Sc3ccc(C(F)(F)F)cc3[N+](=O)[O-])o2)cc(OC)c1OC	-12%
114	O=C(NCC(=O)N(c1cccnc1)C(C(=O)NC1CCCC1)c1ccco1)c1cccs1 (stereo not drawn)	-7%
115	CCc1ccc(NC(=O)C2CCN(S(C)(=O)=O)CC2)cc1	-4%
116	CCN1C(=O)N(C)C(N(O)C(=O)NC)C1(C)C (stereo not drawn)	-3%

Taken from above:
CCc1ccc(NC(=O)C2CCN(S(C)(=O)=O)CC2)cc1 | HPGD block = -4%
O=C(C1CCCN(S(=O)(=O)c2cccs2)C1)N1CCN(C2CCCCC2)CC1 (stereo not drawn) | HPGD block = -7%

The list is partial, so the mix of outcomes need not match the whole.
